Screening results deposited in PubChem by ICCB-Longwood Screening Facility, Harvard Medical School.
PV pol inh = inhibitors of poliovirus RNA polymerase binding and polymerization; hit rate 0.66% among 150,000; poliovirus polymerase elongation, fluorescence polarization; stronger effect = lower value; % elongation, % (compound at 16.7 µg/mL); in the data active means % elongation below about 90%; further: some results filed as inactive read as strong as hits
Target sequence (P03300 1749-2209 limits assumed): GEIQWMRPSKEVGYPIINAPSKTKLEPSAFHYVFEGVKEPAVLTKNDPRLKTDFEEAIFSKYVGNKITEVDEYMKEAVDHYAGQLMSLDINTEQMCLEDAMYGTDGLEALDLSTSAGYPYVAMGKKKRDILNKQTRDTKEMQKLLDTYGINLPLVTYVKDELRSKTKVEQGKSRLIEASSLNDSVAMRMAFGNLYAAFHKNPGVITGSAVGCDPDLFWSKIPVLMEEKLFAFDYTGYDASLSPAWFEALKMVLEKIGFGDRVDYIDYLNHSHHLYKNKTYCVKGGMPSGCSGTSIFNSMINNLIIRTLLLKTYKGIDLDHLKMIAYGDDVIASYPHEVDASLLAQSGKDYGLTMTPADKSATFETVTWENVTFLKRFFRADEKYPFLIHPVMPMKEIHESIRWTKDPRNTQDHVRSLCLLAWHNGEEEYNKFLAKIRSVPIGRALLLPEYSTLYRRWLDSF
PV pol inh intensity = second read-out of PV pol inh, no call of its own (marks repeat the call); % elongation; measured here: total intensity read-out; formula for this scale not given here;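 total fluorescence in place of polarization; lower means less elongation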
* = called active by the depositor. These rows are one share of the data. The share of hits here may be higher or lower than overall.

The first 2 compounds, ahead of the listing:
Value order: PV pol inh intensity	PV pol inh
> CN(Cc1ccccc1)C(=O)Nc1ccc2c(c1)N(C)C(=O)c1ccccc1S2
→ 112	110
> CCOc1ccc(N(C(C)C(=O)Nc2cc(Cl)ccc2OC)S(C)(=O)=O)cc1 (stereo unspecified)
→ 108	109

This part in full, previewed entries included:
Value order: PV pol inh intensity	PV pol inh
> CN(Cc1ccccc1)C(=O)Nc1ccc2c(c1)N(C)C(=O)c1ccccc1S2
→ 112	110
> CCOc1ccc(N(C(C)C(=O)Nc2cc(Cl)ccc2OC)S(C)(=O)=O)cc1 (stereo unspecified)
→ 108	109
> Cc1cc(-c2ccc(C)c(S(=O)(=O)N3CCOc4ccc(Cl)cc43)c2)on1
→ 104	113
> Cc1nc2ccc(S(=O)(=O)NCC(=O)NCc3ccc(Cl)cc3)cc2s1
→ 111	110
> Cc1cc(NC(=O)c2cnn(-c3ccccc3)c2-n2cccc2)ccc1Br
→ 107	107
> Cc1c2cnn(CC(=O)N3CCCCC3)c(=O)c2c(C)n1Cc1ccc(F)cc1
→ 107	105
> CCOC(=O)c1c(NC(C)=O)c2c3c(sc2n1Cc1nc(-c2ccccc2Cl)oc1C)CCCC3
→ 108	107
> Cc1ccc(C)c(NC(=O)Cn2cc(C(=O)c3ccc(Cl)cc3)c(=O)c3ccc(C)nc32)c1
→ 115	109
> COc1cc(NC(=O)Cn2c(=O)ccc3cc(S(=O)(=O)N4CCCC4)ccc32)cc(OC)c1
→ 108	106
> COc1cccc(CNc2ccc3c(c2)ncn3C)c1OC
→ 98	103
> Cc1cc(C)cc(C(=O)Nc2ccc(-c3nc4ncccc4o3)cc2)c1
→ 112	102
> COc1ccc(NC(=O)c2nnn(-c3ccc(C(C)C)cc3)c2C)c(OC)c1
→ 107	104
> Cc1nnc(N2CCN(C(=O)Nc3cc(F)ccc3F)CC2)c2nn(-c3ccc(Cl)cc3)c(C)c12
→ 98	98
> CCOC(=O)c1[nH]c2c(c1Cc1ccccc1OC)C(=O)CC(c1ccc(OC)cc1)C2 (stereo unspecified)
→ 107	104
> COc1ccccc1NC(=O)CN(c1cc(C)cc(C)c1)S(=O)(=O)c1c(C)[nH]c(=O)[nH]c1=O
→ 108	107
> NS(=O)(=O)c1ccc(CCNC(=O)C2COc3ccccc3C2)cc1 (stereo unspecified)
→ 109	106
> CC(=O)N1CCCc2cc(S(=O)(=O)Nc3ccc(C)c(F)c3)ccc21
→ 113	108
> COc1ccc(NC(=O)COc2ccc(S(=O)(=O)NC3CCCCC3)cc2)c(OC)c1
→ 114	108
> COc1cccc(C2CC(=O)Nc3cc(OC)c(OC)c(OC)c32)c1OC(C)C (stereo unspecified)
→ 108	105
> COc1ccc(S(=O)(=O)N(Cc2nc(-c3ccccc3)no2)C2CCCCC2)cc1
→ 113	110
> COc1cccc(C(=O)NC2CC(=O)N(c3ccc4c(c3)OCCO4)C2)c1OC (stereo unspecified)
→ 103	112
> Cc1cc(C)cc(NCc2nnc3n2CCCCC3)c1
→ 115	113
> Cc1cc(NC(=O)CSc2ncc(C(=O)Nc3ccc(F)cc3)c(=O)n2C)no1
→ 113	113
> Cc1ccc(C)c(N2CCN(C(=O)Cn3cnc4onc(-c5ccc(F)cc5)c4c3=O)CC2)c1
→ 107	104
> CCOC(=O)c1c(-c2ccc(C)cc2)csc1NC(=O)c1cc(=O)c2cc(C)c(C)cc2o1
→ 109	106
> COc1ccc(OC)c(CNS(=O)(=O)c2ccc(-c3cc(C(F)(F)F)on3)s2)c1
→ 105	105
> Cc1ccc2c(c1)c1c(c(=O)n(-c3ccccc3)c(=O)n1CC(=O)NCCC1=CCCCC1)n2C
→ 108	107
> COCCCNC(=O)c1cnc2sc(N3CCCCCC3)nn2c1=O
→ 113	111
> COc1cccc(-c2nnc3n(Cc4ccccc4Cl)c(=O)c4ccccc4n23)c1O
→ 100	98
> Cc1ccc(Cn2c(=O)c3ccccc3n3c(-c4ccccc4)nnc23)cc1
→ 116	115

One compound at a time, as listed above. Screens in order: PV pol inh intensity | PV pol inh
Shown for COc1ccc(NC(=O)COc2ccc(S(=O)(=O)NC3CCCCC3)cc2)c(OC)c1 = 114 | 108
Shown for NS(=O)(=O)c1ccc(CCNC(=O)C2COc3ccccc3C2)cc1 (stereo unspecified) = 109 | 106
Shown for CC(=O)N1CCCc2cc(S(=O)(=O)Nc3ccc(C)c(F)c3)ccc21 = 113 | 108

Next compounds follow.
Value order: PV pol inh intensity	PV pol inh
> CCOc1ccc(-c2nn(-c3ccccc3)cc2C2NC(=O)NC(C)=C2C(=O)OC(C)C)cc1 (stereo unspecified)
→ 106	105
> CCN1CCC(N(Cc2ccc(F)cc2)C(=O)Nc2cccc(C(F)(F)F)c2)CC1
→ 114	121
> Cc1nc2scc(C)n2c(=O)c1S(=O)(=O)NCCc1ccccc1
→ 101	103
> COc1ccc(Cl)cc1NC(=O)c1ccc2c(c1)CCN2S(C)(=O)=O
→ 111	111
> CCOc1ccc(CN2C(=O)c3ccccc3Sc3ccc(C(=O)NCc4ccc(C)cc4)cc32)cc1
→ 113	110
> CCCCOc1cccc(C(=O)Nc2ccc3oc(-c4cccnc4)nc3c2)c1
→ 103	103
> CCOc1ccc(NC(=O)CSc2nc(-c3ccc(OC)cc3)nc3c2Cc2c(CO)cnc(C)c2O3)cc1
→ 110	109
> Cc1oc(-c2ccccc2F)nc1Cn1c(SCc2cccc(C(F)(F)F)c2)nc2ccncc21
→ 109	105
> COc1ccc(Cl)cc1NC(=O)Cn1c(=O)c2ccccc2n2nncc12
→ 112	108
> COc1ccc(-n2ncc(C(=O)N3CCN(C(=O)c4ccco4)CC3)c2C2CCN(C(=O)OC(C)(C)C)CC2)cc1
→ 110	107
> Cc1cc(Br)ccc1NC(=O)C(Cc1ccccc1)NS(=O)(=O)c1ccc(Br)s1 (stereo unspecified)
→ 100	99
> COc1cccc(CNC(=O)Cc2csc3nc(-c4ccccc4)cn23)c1
→ 111	110
> Cc1ccc(N2CCN(c3cc(C)nc4c(-c5ccc(Cl)cc5)c(C)nn34)CC2C)cc1 (stereo unspecified)
→ 105	107
> Cc1ccccc1NC(=O)CSc1cn(CC(=O)N(C(C)C)C(C)C)c2ccccc12
→ 116	119
> COc1ccc(NC(=O)c2c(NCc3cccc(OC)c3)sc3c2CCC3)cc1
→ 110	108
> COC(=O)c1ccc(CN(Cc2ccc(OC)c(OC)c2)S(=O)(=O)c2ccc(F)c(C(=O)Nc3cc(C)ccc3C)c2)cc1
→ 97	108
> COC(=O)c1c(-c2cccs2)csc1NC(=O)c1cc(OC)cc(OC)c1
→ 73*	71*
> O=C(Cn1cc(SCc2c(F)cccc2Cl)c2ccccc21)N1CCCCCC1
→ 114	117
> Cc1ccccc1Nc1c(-c2ccco2)nc2c(C)cccn12
→ 106	105
> CCOCCCNC(=O)c1ccc(-n2c(-c3ccccc3)cc3c2CCCC3)cc1
→ 110	106
> COc1ccc(CCNC(=O)CCCCn2c(=O)c3ccccc3n(Cc3cc(C)ccc3C)c2=O)cc1OC
→ 111	106
> Cc1ccc(NC(=O)C2CCCN(c3ncnc4c3nc3n4CCCCC3)C2)c(Br)c1 (stereo unspecified)
→ 112	108
> CCOC(=O)c1c(C)[nH]c(CCC(=O)NCc2ccccc2C)c1C
→ 116	109
> CCOC(=O)c1cc(-c2ccc(OC)c(S(=O)(=O)NCc3ccccc3Cl)c2)on1
→ 106	103
> COC(=O)c1cc(C)nc2c1c(=O)nc(SCc1ccccc1Cl)n2C1CC1
→ 114	112
> Cc1ccccc1CNC(=O)c1ccc2nc(C(C)C)oc2c1
→ 109	110
> CCOc1ccc(CNC(=O)Cn2nc(C)c3nn(-c4ccc(Cl)cc4)c(C)c3c2=O)cc1OC
→ 117	114
> CCCCOc1ccc(C(=O)N(Cc2ccccc2)C2CCS(=O)(=O)C2)cc1 (stereo unspecified)
→ 108	99
> Cc1cccc(C(=O)Nc2ccccc2C(=O)OCc2cc(=O)n3nc(C4CC4)sc3n2)c1
→ 107	103
> CCC(=O)Nc1sc2c(c1C(=O)Nc1ccc(OC)cc1)CCC(C(C)(C)C)C2 (stereo unspecified)
→ 101	100

Sorted by heavy-atom count (high to low): 3 of the compounds above
Value order: PV pol inh intensity	PV pol inh
> O=C(Cn1cc(SCc2c(F)cccc2Cl)c2ccccc21)N1CCCCCC1
→ 114	117
> CCCCOc1ccc(C(=O)N(Cc2ccccc2)C2CCS(=O)(=O)C2)cc1 (stereo unspecified)
→ 108	99
> Cc1ccccc1Nc1c(-c2ccco2)nc2c(C)cccn12
→ 106	105

Other structures:
Value order: PV pol inh intensity	PV pol inh
> O=C(Nc1ccccc1Cl)N1CCC(CN2CCCC2)CC1
→ 103	104
> Cc1ccc(-c2nnc(Nc3ccc(C(N)=O)cc3)c3ccccc23)cc1S(=O)(=O)N1CCCCC1
→ 97	100
> Cc1ccccc1NC(=O)c1ccc2c(O)c(S(=O)(=O)c3ccccc3)c(=O)[nH]c2c1
→ 109	108
> CCN(CC)S(=O)(=O)c1ccc(-c2csc(=Nc3cccc(C(F)(F)F)c3)n2Cc2ccc3c(c2)OCO3)cc1
→ 98	100
> O=C(COC(=O)c1cc(-c2ccccc2)nc2ccccc12)c1ccc(Br)cc1
→ 105	102
> COc1cccc(CSc2nc3n(n2)C(c2cccc(F)c2)C(C(=O)Nc2ccccc2C)=C(C)N3)c1 (stereo unspecified)
→ 108	109
> COc1ccccc1NC(=O)C1=C(C)Nc2nc(SCc3ccccc3F)nn2C1c1cccs1 (stereo unspecified)
→ 105	104
> O=C(NCCSCc1ccc(Cl)cc1)C1CCN(S(=O)(=O)Cc2ccccc2)CC1
→ 113	108
> CCn1c(C)c(C2N3CC4(C)CN2CC(CC)(C3)C4=O)c2ccccc21 (stereo unspecified)
→ 108	115
> CC(=O)c1cccc(NS(=O)(=O)c2cccc(S(=O)(=O)c3ccc(Br)cc3)c2)c1
→ 111	104
> O=c1c(N2CCN(c3cccc(C(F)(F)F)c3)CC2)csc2ccc(Cl)cc12
→ 106	107
> Cc1ccc(CCNC(=O)C2CCN(Cc3nc(-c4ccccc4C)oc3C)CC2)cc1
→ 107	108
> O=C(C1CCCN(S(=O)(=O)c2cccc3nonc23)C1)N1CCN(c2ccccc2F)CC1 (stereo unspecified)
→ 115	107
> CCc1ccc(NC(=O)Cn2c3ncccc3c(=O)n2-c2ccc(C)c(C)c2)cc1
→ 108	109
> COc1ccc2c(c1)c1c(c(=O)n(CCc3ccccc3)c(=O)n1Cc1ccc(Cl)cc1)n2C
→ 116	114
> COC(=O)c1cc2oc(C)cc2n1Cc1cc(C)ccc1C
→ 113	107
> COc1ccc(NC(=O)Cn2c(=O)n(CCC(=O)NCCc3ccc(OC)c(OC)c3)c(=O)c3ccccc32)cc1Cl
→ 106	107
> CCN(C(=O)C1CCN(S(=O)(=O)c2ccc3c(c2)CCCN3C(C)=O)CC1)c1cccc(C)c1
→ 104	109
> CCOC(=O)c1c(Nc2ccccc2)nnc(-c2ccccc2)c1-c1ccccc1
→ 105	108
> CCc1ccccc1Nc1nn2c(=O)c3ccc(C(=O)NCc4ccc(C)cc4)cc3nc2s1
→ 101	103
> COC(=O)c1ccc(NC(=O)CN2C(=O)c3cccc4cccc2c34)cc1
→ 110	108
> Cc1cccc(CN2C(=O)CN=C(c3ccccc3Cl)c3cc(Cl)ccc32)c1
→ 107	99
> CC1CN(C(=O)CCC(=O)NCc2cccc(Cl)c2)c2ccccc2S1 (stereo unspecified)
→ 111	111
> COc1cccc(C2c3c(oc4cc(C)cc(C)c4c3=O)C(=O)N2CCc2ccc(OC)c(OC)c2)c1 (stereo unspecified)
→ 110	112
> COc1cc(OC)c(NC(=O)CN(C)S(=O)(=O)c2ccc3c(c2)CCCC(=O)N3)cc1Cl
→ 99	103
> COc1cccc(COC(=O)c2nn(-c3ccccc3)nc2N)c1
→ 109	104
> COc1cccc(NC(=O)CCc2c(C)nc3nc(CNC(=O)c4cccc(F)c4)nn3c2C)c1
→ 102	101
> Cc1oc2c(c(C)cc3oc(=O)c(CC(=O)NCCc4ccc(Cl)cc4)c(C)c32)c1C
→ 101	105
> Cc1ccc(N2CC(NC(=O)CCCc3ccccc3)CC2=O)cc1 (stereo unspecified)
→ 109	103
> Cc1sc2c(c1C)c(=O)n(-c1ccccc1)c(=O)n2CC(=O)c1ccc(Cl)cc1
→ 108	104
> COc1ccc(S(=O)(=O)N2CCN(CC(=O)Nc3ccc(Cl)c(C(F)(F)F)c3)CC2)cc1
→ 106	104
> CCCCCNS(=O)(=O)c1ccc(N2CCCCS2(=O)=O)cc1
→ 105	106
> COc1ccc(S(=O)(=O)Nc2ccc(-c3cn4c(C)csc4n3)cc2)cc1
→ 119	114
> COC(=O)c1cc(OC)c(OC)c(OC)c1NC(=O)c1cc(=O)n(C)c(=O)n1C
→ 104	101
> O=c1c2ccccc2nc2sc(Nc3cccc(C(F)(F)F)c3)nn12
→ 95	104
> COc1ccc(-n2nnc(-c3nc(-c4cccs4)no3)c2N)cc1
→ 115	112
> O=C(CSCc1ccc(F)cc1)N1CCc2c([nH]c3ccccc23)C1c1ccc(Cl)cc1 (stereo unspecified)
→ 102	109
> COc1ccc(C2CC(=O)N(Cc3ccccc3C)c3c2c(C)nn3-c2nc(C)cc(C)n2)c(OC)c1 (stereo unspecified)
→ 103	105
> CCn1c(=O)c2sccc2n2c(CCC(=O)Nc3cc(C)cc(C)c3)nnc12
→ 112	109
> CCOC(=O)C1=C(CS(=O)(=O)c2ccc(OC)c(Cl)c2)NC(=O)NC1c1cccc(OC)c1 (stereo unspecified)
→ 109	104
> CCc1nn(Cc2c(C)cc(C)cc2C)c(=O)c2cc3cc(C)ccc3n12
→ 113	110
> CCOc1ccc(NC(=O)CSc2nc3ccsc3c(=O)n2CC)cc1
→ 112	108
> CC(=O)N1CCc2cc(S(=O)(=O)NC(Cc3ccccc3)C(=O)Nc3cccc(C)c3)ccc21 (stereo unspecified)
→ 107	105
> Clc1ccccc1CSc1nc(NCCc2ccccc2)c2ccccc2n1
→ 107	104
> CCN1CCN(C(=O)Cn2ncc3c4ccccc4n(Cc4ccccc4)c3c2=O)CC1
→ 105	107
> CC(=O)c1cccc(NC(=O)Cn2cnc3c2c(=O)n(C)c(=O)n3C)c1
→ 107	111
> CCOc1ccccc1CNC(=O)c1ccc2c(c1)nc1n2CCCCC1
→ 112	113
> O=C(Nc1cccc(C(F)(F)F)c1)N1CCC(CN2CCCCCC2)CC1
→ 109	110
